UCH37 DUB inh: inhibitors of human UCH37 deubiquitinase, primary screen, biochemical, Ub-AMC cleavage, fluorescence | Ubiquitin carboxyl-terminal hydrolase isozyme L5 (Homo sapiens), Q9Y5K5 | purified proteasome/UCH37 | inhibition, % (no concentration beside the values) | 0.33% of 330,000 active;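 active means mean of two replicates above 20%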;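 further: 0% = compound-free wells with enzyme and 100% = wells lacking proteasome; stock transfer was 100 nL into about 20 µL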
Target sequence (Q9Y5K5 whole entry, looked up): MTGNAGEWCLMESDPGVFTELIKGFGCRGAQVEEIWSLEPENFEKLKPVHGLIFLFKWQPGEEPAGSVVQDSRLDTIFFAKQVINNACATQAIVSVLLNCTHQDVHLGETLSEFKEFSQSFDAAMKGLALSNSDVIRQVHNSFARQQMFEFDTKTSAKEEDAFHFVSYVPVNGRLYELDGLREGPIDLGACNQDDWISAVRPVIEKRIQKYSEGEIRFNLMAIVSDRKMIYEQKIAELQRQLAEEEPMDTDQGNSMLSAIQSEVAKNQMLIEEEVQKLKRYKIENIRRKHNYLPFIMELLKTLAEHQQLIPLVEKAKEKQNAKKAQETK
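Signal – fluorescence, ex 355 nm, em 460 nm · System – Proteasome-bound UCH37 · Input – 0.15 nM proteasome as dispensed · Timing – 30 min preincubation with enzyme, 25 min cleavage at room temperature · Read-out basis – percent inhibition of cleavage signal versus uninhibited and no-proteasome wells · Medium – Tris-HCl pH 7.4 with ATP-MgCl2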
E coli growth: E. coli growth inhibition, primary screen, OD600. OD600 absorbance (test concentration not listed). Escherichia coli growth, 23 h; stronger effect = lower value. 0.21% of 330,000 active;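 active means OD600 absorbance below the run mean of sample wells minus 3.6 SD, in any replicate, cut at about 0.56 in these data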;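 further: stock transfer was 300 nL into about 60 µL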
* hit, by the source's call.

SMILES	UCH37 DUB inh	E coli growth
CCOC(=O)CC(=O)NN=Cc1c(N)n(C)c(=O)n(C)c1=O	4.6	0.7
COc1cc(NC(=O)CC(C)=NNC(=O)C(=O)NCCO)c(OC)cc1Cl	4.8	0.67
COc1ccc2ccc(OC)c(C=Nn3cnnc3)c2c1	4.0	0.66
S=c1[nH]nc(-c2ccccc2)n1N=C/C=C/c1ccco1	12	0.69
Fc1ccc(-c2ccc(C=Nn3cnnc3)o2)cc1	-1.7	0.68
CN(C)c1ccc(C=NNC(=O)c2ccco2)cc1	11	0.66
COc1cc(OC)c(OC)cc1C=NNC(=O)c1cccc(S(=O)(=O)N2CCOCC2)c1	10	0.68
CN(C)c1ccc(-c2nc3ccccn3c2N=Cc2ccc(Br)cc2)cc1	0.7	0.66
O=C(CC(=NNC(=O)c1ccccc1Br)C(F)(F)F)c1cccs1	8.1	0.66
Nc1nonc1-n1nnc(C(=O)NN=Cc2cccc(Cl)c2)c1CN1CCCCCC1	0.5	0.72
Oc1ccc(C=Nn2c(COc3ccccc3)n[nH]c2=S)cc1O	1.9	0.69
Cc1cc(C)n(C(=O)C(C#N)=NNc2cc(Cl)cc(Cl)c2)n1	7.6	0.6
Cc1ccc(C(=O)Nc2ccc(C(=O)NN=Cc3ccncc3)cc2)cc1	3.5	0.67
COc1ccc2cc(C=NO)c(Cl)nc2c1	-12	0.71
O=C(O)c1ccc(NN=Cc2cc3ccccc3nc2Cl)cc1	-14	0.64
Cc1nn(-c2cccc(Cl)c2)c(Cl)c1C=NNC(=O)c1cccnc1	0.0	0.69
O=C(NN=Cc1coc2ccc(Cl)cc2c1=O)c1ccncc1	-46	0.65
CCOC(C)=Nn1c2nc3ccccc3nc2c2c(=O)n(Cc3ccccc3Cl)c(C)nc21	4.8	0.75
COc1ccc(CC(=O)NCC(=O)NN=C(C)c2ccco2)cc1	-1.0	0.68
Cc1ccc(S(=O)(=O)ON=C2CCCc3ccccc32)cc1	5.8	0.71
Cc1ccc(C=NNC(=O)c2nnn(-c3nonc3N)c2CSc2ccc(Cl)cc2)o1	-11	0.65
Nc1nnn(CC(=O)NN=Cc2ccc(O)cc2)n1	1.5	0.72
CCc1ccc(-c2cc(C(=O)NN=Cc3c[nH]c4ccccc34)[nH]n2)cc1	-19	0.64
COc1ccc(OC)c(N/C(=N\C(=S)Nc2ccccc2)Nc2nc(C)cc(C)n2)c1	6.5	0.71
COc1ccc(O)c(C=NNC(=O)CN2CCS(=O)(=O)CC2)c1	-110	0.69
Next compounds follow.
SMILES	UCH37 DUB inh	E coli growth
COc1ccccc1NS(=O)(=O)c1cccc(C(=O)NN=C2CC(=O)CC(C)(C)C2)c1	5.6	0.73
Cc1cc(C)nc(SC(C)C(=O)NN=Cc2cccs2)n1 (stereo not given)	1.4	0.64
COc1ccc(S(=O)(=O)N2CCOCC2)cc1NC(=O)CON=Cc1ccccc1OC(F)F	3.7	0.73
CC1=NNC(=O)C1CC(=O)NN=Cc1cccs1 (stereo not given)	6.3	0.69
CC(=NNC(=O)CNc1cccc(Cl)c1C)c1cccs1	6.2	0.65
COc1cccc(C2C3=C(N=c4sc(=Cc5ccc(O)cc5)c(=O)n42)c2ccccc2CC3)c1OC (stereo not given)	1.4	0.72
CC(=NNc1cc(C(F)(F)F)ccc1Cl)c1ccncc1	5.4	0.63
COc1ccc(OCC(=O)NN=C/C=C/c2ccccc2)cc1	1.0	0.7
Cc1ccc(S(=O)(=O)N2CCN(CC(=O)NN=Cc3ccco3)CC2)cc1	2.8	0.68
O=C(NN=Cc1cccc2nccnc12)c1ccccc1O	8.2	0.67
Clc1ccc(C=NNc2ncnc3ccccc23)cc1Cl	4.6	0.68
Cc1ccsc1C=NNC(=O)CNC(=O)c1ccc(S(=O)(=O)N(C)C)cc1	3.9	0.69
COc1ccc(C=NNC(=O)CCn2cnc3ccccc32)cc1	5.2	0.71
Cn1ncc(Cl)c1C(=O)NN=Cc1cc2c(cc1[N+](=O)[O-])OCO2	3.2	0.72
O=C(NN=Cc1ccc([N+](=O)[O-])o1)c1cc(-c2ccncc2)nc2ccccc12	5.3	0.7
C/C(C=Nn1c(-c2ccccn2)n[nH]c1=S)=C\c1ccccc1	4.2	0.7
CCOc1cc(C=NNC(=O)c2ccc(NC(=O)C(C)(C)C)cc2)ccc1OC(=O)c1ccc(OC)cc1	3.2	0.74
ON=C1CCCSc2ccccc21	3.6	0.63
CCc1ccc(C(C)=NNC(=O)C(O)c2ccccc2)s1 (stereo not given)	3.9	0.61
COc1cc(C=NNC(=O)c2c(C)nc3cc(C)ccn23)ccc1O	6.6	0.67
CC(=NNC(=S)Nc1c(C)cccc1C)c1ccc(O)cc1	1.8	0.71
COc1ccc(C(C)=NNC(=O)CNC(=O)c2cccs2)cc1	1.4	0.7
COc1cc(C)nc(Oc2ccc(C=NO)cc2)n1	0.8	0.68
CCOC(=S)NC(=NS(=O)(=O)c1ccccc1)c1ccccc1	2.4	0.71
C(=NNc1nc2ccccc2[nH]1)c1cccs1	6.1	0.6

23 successive records from above:
SMILES	UCH37 DUB inh	E coli growth
COc1ccc(O)c(C=NNC(=O)CN2CCS(=O)(=O)CC2)c1	-110	0.69
COc1ccccc1NS(=O)(=O)c1cccc(C(=O)NN=C2CC(=O)CC(C)(C)C2)c1	5.6	0.73
Cc1cc(C)nc(SC(C)C(=O)NN=Cc2cccs2)n1 (stereo not given)	1.4	0.64
COc1ccc(S(=O)(=O)N2CCOCC2)cc1NC(=O)CON=Cc1ccccc1OC(F)F	3.7	0.73
CC1=NNC(=O)C1CC(=O)NN=Cc1cccs1 (stereo not given)	6.3	0.69
CC(=NNC(=O)CNc1cccc(Cl)c1C)c1cccs1	6.2	0.65
COc1cccc(C2C3=C(N=c4sc(=Cc5ccc(O)cc5)c(=O)n42)c2ccccc2CC3)c1OC (stereo not given)	1.4	0.72
CC(=NNc1cc(C(F)(F)F)ccc1Cl)c1ccncc1	5.4	0.63
COc1ccc(OCC(=O)NN=C/C=C/c2ccccc2)cc1	1.0	0.7
Cc1ccc(S(=O)(=O)N2CCN(CC(=O)NN=Cc3ccco3)CC2)cc1	2.8	0.68
O=C(NN=Cc1cccc2nccnc12)c1ccccc1O	8.2	0.67
Clc1ccc(C=NNc2ncnc3ccccc23)cc1Cl	4.6	0.68
Cc1ccsc1C=NNC(=O)CNC(=O)c1ccc(S(=O)(=O)N(C)C)cc1	3.9	0.69
COc1ccc(C=NNC(=O)CCn2cnc3ccccc32)cc1	5.2	0.71
Cn1ncc(Cl)c1C(=O)NN=Cc1cc2c(cc1[N+](=O)[O-])OCO2	3.2	0.72
O=C(NN=Cc1ccc([N+](=O)[O-])o1)c1cc(-c2ccncc2)nc2ccccc12	5.3	0.7
C/C(C=Nn1c(-c2ccccn2)n[nH]c1=S)=C\c1ccccc1	4.2	0.7
CCOc1cc(C=NNC(=O)c2ccc(NC(=O)C(C)(C)C)cc2)ccc1OC(=O)c1ccc(OC)cc1	3.2	0.74
ON=C1CCCSc2ccccc21	3.6	0.63
CCc1ccc(C(C)=NNC(=O)C(O)c2ccccc2)s1 (stereo not given)	3.9	0.61
COc1cc(C=NNC(=O)c2c(C)nc3cc(C)ccn23)ccc1O	6.6	0.67
CC(=NNC(=S)Nc1c(C)cccc1C)c1ccc(O)cc1	1.8	0.71
COc1ccc(C(C)=NNC(=O)CNC(=O)c2cccs2)cc1	1.4	0.7

More results follow.
SMILES	UCH37 DUB inh	E coli growth
COC(=O)c1ccc(CON=Cc2ccccc2OC)cc1	1.3	0.62
COc1cc(C=Nn2c(-c3ccccc3)n[nH]c2=S)cc(OC)c1O	2.5	0.69
COc1ccccc1NS(=O)(=O)c1cccc(C(=O)NN=Cc2ccc3c(c2)OCCO3)c1	-3.4	0.69
NN=CC(=NNc1ccc(Cl)cc1)C(=O)c1ccncc1	8.8	0.73
COc1ccc(C(C)=NN=C(N)N)c(OC)c1	3.5	0.71
Cc1ccc(C=NNC(=O)c2nnn(-c3nonc3N)c2CN(C)C2CCCCC2)cc1	-1.6	0.71
CCOC1(N=C(C)NS(=O)(=O)c2ccc(Cl)cc2)C(C)=CC(=O)C=C1C	0.8	0.72
CC(=NN1CCN(C)CC1)c1ccc(Cl)c(Cl)c1	1.3	0.7
CN(C)c1ccc(C=NO)cc1	-1.5	0.72
O=C(NN=Cc1ccco1)c1cc(-c2ccc(Cl)s2)[nH]n1	3.2	0.72
CN(C)c1ccc(C=NNC(=O)c2cccc(N3CCCC3=O)c2)cc1	2.2	0.67
CC1=CC(=NNC(=O)c2ccc(O)cc2)CC1	4.7	0.72
O=C(NN=Cc1ccncc1)c1cc(Br)ccc1OCc1ccccc1	5.7	0.71
Cc1ccccc1OCC(=O)NN=Cc1ccccn1	5.4	0.68
O=C(O)CCC(=NNc1ccccc1[N+](=O)[O-])c1cccs1	12	0.7
O=C(CNC(=O)c1ccco1)NN=Cc1c[nH]c2ccccc12	5.2	0.66
C=CCOc1c(OC)cc(C=NNc2cccc(C(=O)O)c2)c(Br)c1Br	4.0	0.67
COc1ccc(C(=O)ON=Cc2ccc(S(=O)c3ccc(Cl)cc3)nc2)cc1 (stereo not given)	3.1	0.76
O=[N+]([O-])c1ccc(C=NN2CCN(c3ccc(Cl)cc3)CC2)cc1	1.8	0.81
Cc1cc(NN=Cc2ccccc2F)nc(NCc2ccccc2)n1	3.7	0.69
COc1ccc(CC(=O)NN=Cc2cccs2)cc1OC	3.1	0.69
COc1cc(C=NNC(=O)c2ccc(O)cc2)ccc1OCC(=O)Nc1cccc([N+](=O)[O-])c1	5.5	0.73
COc1ccccc1C=NNC(=O)CNC(=O)c1ccc(S(=O)(=O)N2CCCC2)cc1	-4.0	0.7
COc1cc(C=NNC(N)=O)c(Br)cc1OCC(=O)Nc1ccccc1C	1.9	0.78
CSCCOC(=O)COc1ccc(C=NNC(=O)c2nn(C)cc2Cl)cc1	4.4	0.69
More structures.
SMILES	UCH37 DUB inh	E coli growth
Nc1nonc1-n1nnc(C(=O)NN=Cc2ccc(F)cc2)c1-c1ccc2c(c1)OCO2	2.3	0.65
O=C(NN=Cc1ccccn1)c1cc(-c2ccc(Cl)s2)[nH]n1	6.8	0.67
CON=C(C(=O)O)c1csc(NN=C(C)C)n1	5.8	0.72
COc1ccc(C(=O)NN=Cc2coc3ccccc3c2=O)cc1	-34	0.67
COc1ccc(C=NNC(=O)c2cccc(NC(=O)c3ccc(F)cc3)c2)c(C(=O)O)c1OC	1.7	0.64
O=C(CSc1cccc2cccnc12)NN=Cc1cccnc1	-8.5	0.64
CC(CCc1ccccc1)=NNC(=O)C(=O)NCc1ccccc1	7.7	0.69
Cc1ccc(CN(CC(=O)NN=Cc2ccco2)S(=O)(=O)c2ccc(C)cc2)cc1	2.9	0.68
COc1ccc(C=NNC(=O)C2(O)c3ccccc3-c3ccccc32)cc1	2.9	0.63
O=C(NN=Cc1ccccc1O)c1cccc(C(F)(F)F)c1	-2.9	0.61
CC(=NNc1ccc(S(N)(=O)=O)cc1[N+](=O)[O-])c1cccnc1	4.1	0.68
O=C(NN=Cc1ccccn1)c1ccc(Cl)cc1	3.1	0.63
CC(=NNC(=O)Cn1cnc2ccccc21)c1cccs1	2.2	0.61
CSc1ccc(C=NN2CCN(Cc3ccccc3Cl)CC2)cc1	2.4	0.69
O=C(NN=Cc1ccccn1)c1ccco1	5.7	0.72
O=c1cc(N=Cc2coc3cc(Br)ccc3c2=O)[nH]c(=S)[nH]1	12	0.64
S=c1[nH]nc(-c2ccc(Cl)cc2)n1N=Cc1ccco1	2.4	0.64
O=C(NN=Cc1cccs1)C(=O)N1CCCC1	5.5	0.69
Cc1nn(-c2ccccc2)c(Cl)c1C=NN1CCN(c2ccccn2)CC1	1.8	0.66
O=C(NN=Cc1cccnc1)c1ccc(Cn2cc([N+](=O)[O-])cn2)o1	5.8	0.68
Clc1cccc(C=NNc2ncnc3ccccc23)c1	6.8	0.75
COc1ccc(-c2nn(-c3ccccc3)cc2C=NNC(=O)c2cccc(S(=O)(=O)Nc3ccccc3Cl)c2)cc1	-68	0.7
COc1cc(C=NNC(=O)c2cccc(C(=O)NN=Cc3ccc(O)c(OC)c3)n2)ccc1O	1.5	0.7
CCN(CC)c1ccc(C(=O)NN=Cc2ccccc2OC(F)F)cc1	-18	0.68
NC(Cc1nc2ccccc2s1)=NO	5.6	0.7
Additional records.
SMILES	UCH37 DUB inh	E coli growth
COc1ccc(CCNC(=O)CC(=O)NN=Cc2ccc(Br)cc2)cc1OC	3.0	0.64
O=C(Cn1c2ccccc2c(=O)c2ccccc21)NN=Cc1ccc(N2CCCC2)c([N+](=O)[O-])c1	3.1	0.68
CN(C)C=Nc1nccc(-c2cccs2)n1	-28	0.68
Oc1ccccc1C=NNC(=S)NC1CC2CC1C1C=CCC21 (stereo not given)	-1.0	0.67
Cc1nn(-c2ccccc2)c(C)c1C=NNC(=O)c1cc(-c2ccc(Br)s2)[nH]n1	2.9	0.7
Cc1sccc1C=NNC(=O)c1cccc2ccccc12	4.3	0.7
Clc1ccccc1CN1CCN(N=C/C=C/c2ccco2)CC1	8.1	0.65

As entered above.
For UCH37 DUB inh, `CCN(CC)c1ccc(C(=O)NN=Cc2ccccc2OC(F)F)cc1` is entered as -18
For E coli growth, `COc1ccccc1NS(=O)(=O)c1cccc(C(=O)NN=C2CC(=O)CC(C)(C)C2)c1` is entered as 0.73

Screening results deposited in PubChem by ICCB-Longwood Screening Facility, Harvard Medical School.

This is a subset, so the mix of outcomes need not match the whole.
